# Menin-MLL FL inh: qHTS Assay for Inhibitors Targeting the Menin-MLL Interaction in MLL Related Leukemias: Competition With Fluorescein Labeled MLL-derived Peptide; AID 1766, 2009; 290,000 tested, under 10 active; Fluorescence polarization, fluorescein-MLL peptide displacement from menin; FP activity change, % at 61.4 µM; inconclusive = falling polarisation curve, or a change in total fluorescence; inactive = total fluorescence flat and polarisation flat or rising; no compound was filed as active; the % refers to the polarisation; negative = inhibition;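 note: % of control where 0% means no effect; inhibitors lower the polarisation; unlabelled MLL peptide was the positive control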
# gsp ag: qHTS for Agonist of gsp, the Etiologic Mutation Responsible for Fibrous Dysplasia/McCune-Albright Syndrome: qHTS; gsp mutant cells, cAMP HTRF, 30 min; control for the full effect not named in the record; Potency, µM (top dose mostly 76.9 µM), inactives show top-dose activation (cAMP increase), usual class: activators; AID 624287, 2012; 340,000 compounds, 0.13% hits; active = well fitted activation curve with a large enough effect; inconclusive = small, poorly fitted or top-dose-only effect, or another doubt; inactive = no such curve, though single readings can be large or run the other way; cell line not stated here;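 note: phosphodiesterase inhibitor Ro 20-1724 added with compounds to block cAMP breakdown; potency is the fitted concentration of half-maximal effect; nearly all actives have a fitted effect of over 60% in size; about a fifth of the inactives were tested at one dose only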
#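 Cells stably selected in G418 were plated at 2000/well, grown 16-24 hr, then given compounds in DMSO with the PDE inhibitor […] (300 uM solution added) for 30 min at 37C; cAMP was read by HTRF.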
# gsp antagonist: qHTS for Antagonists of gsp, the Etiologic Mutation Responsible for Fibrous Dysplasia/McCune-Albright Syndrome: qHTS; gsp-mutant cells, cAMP HTRF, 30 min; control for the full effect not named in the record; Potency, µM (top dose mostly 76.9 µM), without a hit: at the highest dose activity change, negative = inhibition, actives largely listed as inhibitors; 340,000 compounds, 0.4% hits; active = falling curve of any shape with a large fitted effect; inconclusive = falling curve, mostly with a smaller effect; inactive = flat or rising curve; cell line not stated here;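 note: intracellular cAMP measured with PDE inhibitor Ro 20-1724 present during compound exposure; potency is the fitted concentration of half-maximal effect; % is set by controls: 0 for no effect and ±100 for the full control effect; nearly all actives have a fitted effect of over 65% in size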
#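 Measurement of cellular cAMP by homogeneous time-resolved fluorescence following a 30 min compound exposure at 37C. The PDE inhibitor […] was present throughout; the assay buffer was DPBS with 0.05% BSA and 0.005% Tween 20.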
# Sfp PPTase inh: qHTS Assay for Inhibitors of Bacillus subtilis Sfp phosphopantetheinyl transferase (PPTase); 310,000 compounds, 3.5% hits; Biochemical Sfp PPTase activity, qHTS; Potency, µM, for inactives: max response, negative = inhibition, hits mostly inhibitors; active = well fitted inhibition curve with a large enough effect; inconclusive = small, poorly fitted or top-dose-only effect, or another doubt; inactive = no such curve, though single readings can be large or run the other way;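 note: the enzyme is Sfp with the accession as filed and its product quenches rhodamine fluorescence; potency is the fitted concentration of half-maximal effect; 0% = enzyme reaction without inhibitor and -100% = no enzyme wells; top concentration of the series not given in the record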
#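 Fluorescence-quenching assay: 15 nM Sfp-PPTase preincubated 15 min at room temperature with compound, then 5 uM rhodamine-CoA and 12.5 uM BHQ-2-labelled YbbR peptide added. Fluorescence (ex 525/em 598 nm) read at start and after 30 min; difference gives rate.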
# ClpP mod: qHTS Assay for Activators of ClpP | purified B. subtilis ClpP, FRET peptide cleavage, 20 min | Potency, µM (series often up to 57.5 µM), for inactives: at the highest dose activity change, negative = active | 340,000 compounds, 1.9% hits; active = well fitted falling curve with a large enough effect; inconclusive = small, poorly fitted or top-dose-only effect; inactive = no such curve, though single readings can be large or run the other way; note: potency is the fitted concentration of half-maximal effect; the source files actives as falling curves though it sought activators and does not explain the sign; nearly all actives have a fitted effect of over 65% in size; many hits overshoot -100%
# Target sequence (P80244 whole entry, looked up): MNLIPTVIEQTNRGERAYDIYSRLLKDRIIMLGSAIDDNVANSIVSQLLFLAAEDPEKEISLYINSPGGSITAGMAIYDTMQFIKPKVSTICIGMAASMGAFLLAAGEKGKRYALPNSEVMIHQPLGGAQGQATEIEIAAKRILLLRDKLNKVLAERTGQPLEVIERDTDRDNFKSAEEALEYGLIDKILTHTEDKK
#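 Buffer: 100 mM Tris/HCl pH8, 100 mM KCl, 0.05% low protease BSA, 2.5% glycerol, 0.01% Tween-20. ClpP 10 microg/mL final; 20 min RT; delta FRET normalized to ADEP and DMSO controls.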
# TRPML1 blocker: qHTS for Inhibitors of the Human Mucolipin Transient Receptor Potential 1 (TRPML1). 390,000 compounds, 0.02% hits. Mucolipin-1 (Homo sapiens), Q9GZU1. activity change, negative = inhibition, % (no concentration beside the values). AID 624415, 2012. TRPML1-inducible cells, Ca2+ dye fluorescence, FDSS; hits give low values; inhibition of EC80 agonist-evoked calcium signal; in the data active means activity change below about -50%; inconclusive means about -30% to -50%; inactive means above about -30%;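 note: stimulus is agonist 54-4 at its EC80 concentration; % is set by controls: 0 for no effect and ±100 for the full control effect; compound concentration not given in the record; the text of the record puts the active cut at -80%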
# Target sequence (Q9GZU1 whole entry, looked up): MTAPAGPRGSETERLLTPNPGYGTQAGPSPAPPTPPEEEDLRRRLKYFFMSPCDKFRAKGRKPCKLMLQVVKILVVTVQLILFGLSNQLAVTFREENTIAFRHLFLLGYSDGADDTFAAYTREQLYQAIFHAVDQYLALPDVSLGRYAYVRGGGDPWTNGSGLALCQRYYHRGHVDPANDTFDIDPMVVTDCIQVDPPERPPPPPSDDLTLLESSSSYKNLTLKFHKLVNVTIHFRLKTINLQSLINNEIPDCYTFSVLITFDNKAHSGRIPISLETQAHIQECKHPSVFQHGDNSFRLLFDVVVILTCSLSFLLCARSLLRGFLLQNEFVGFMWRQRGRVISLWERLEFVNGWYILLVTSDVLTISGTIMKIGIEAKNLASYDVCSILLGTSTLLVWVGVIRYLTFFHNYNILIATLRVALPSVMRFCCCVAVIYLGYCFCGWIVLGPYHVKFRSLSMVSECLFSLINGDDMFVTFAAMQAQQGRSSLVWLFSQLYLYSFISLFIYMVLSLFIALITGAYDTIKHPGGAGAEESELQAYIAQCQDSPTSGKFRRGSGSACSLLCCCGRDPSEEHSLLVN
#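 Calcium fluorescence in TRPML1-DL cells induced overnight with Tet: a 110 s read after compound pin addition, then a 110 s antagonist read after challenge with 54-4 at 4 uM final (EC80).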
# TRPV1 potentiator: HTS Assay for Compounds that Act as Potentiators of the Vanilloid Receptor 1; Transient receptor potential cation channel subfamily V member 1 (Homo sapiens), Q8NER1; TRPV1-expressing cells, Fluo-8 calcium influx, capsaicin EC20 potentiation; host cell line not named in the record; control for the full effect not named in the record; potentiation, % at 8.33 µM; 320,000 compounds, 0.02% hits; AID 540277, 2011; active means potentiation above 80%; inconclusive means 30% to 80%; inactive means below 30%; note: 0% is about no effect
#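 TRPV1-expressing cells were cultured overnight at 35.5C and loaded with Fluo-8 calcium dye for 40 to 90 min at room temperature. After a 10 s baseline, compound was added and calcium influx was read kinetically for 3 min (ex 480/em 520 nm).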
# Starred values were filed as active, the others as inactive; u = inconclusive; x = no result given; [ ] = another dose, or the depositor's remark.
SMILES,Menin-MLL FL inh,gsp ag,gsp antagonist,Sfp PPTase inh,ClpP mod,TRPML1 blocker,TRPV1 potentiator
CCn1c(SCC(=O)N(C)CC(=O)Nc2ccc(F)c(F)c2F)nnc1-c1ccco1,x,2.7%[15.4 µM],0.9%,16.6%,-1.4%,-7.3,-9.0
Cc1ccc([N+](=O)[O-])cc1N/C=C/C(=O)c1ccco1,0.1,9.7%,-19.2%,-18.1%,0.4%,2.5,0.7
O=C(CCC(=O)N1CCCC1)Nc1ccc(Cl)c(Cl)c1,4.9,-0.1%,11.5%,11.6%,-0.3%,25.2,u
CN1CCN(c2nc3c(c(=O)[nH]c(=O)n3C)n2CCSc2ncccn2)CC1,1.9,x,x,-1.4%,x,x,25.1
O=C(/C=C/c1ccc(Br)cc1)c1ccco1,0.0,4.3%[15.4 µM],0.1%,4.6%,x,-0.9,-16.3
CCCCc1cc(=O)oc2cc(OC3CCCCC3=O)ccc12 (configuration not stated),7.6,25.4%,6.4%,5.9%,3.7%,-6.2,-13.7
CCOc1ccc(NC(=O)CC2C(=O)N(c3ccc(OC)cc3)C(=O)N2CCc2cccs2)cc1 (configuration not stated),7.9,13.8%,-5.0%,37.2%[activator],-2.3%,19.2,1.0
C=CCN1C(=O)C(Cc2ccccc2)SC1=Nc1ccc(C(=O)O)cc1 (configuration not stated),0.1,19.4%[15.4 µM],-19.9%,3.8%,u,-1.2,6.1
Cc1ccc2[nH]c(=O)c(-c3nc4ccccn4c3NCc3ccco3)cc2c1,1.0,-3.6%,-6.0%,u,-6.5%,50.4,-11.0
CN(C)c1ccc(C(CNC(=O)c2ccc(F)cc2)c2c[nH]c3ccccc23)cc1 (configuration not stated),4.6,9.8%,u,23.0%,-2.7%,2.5,u
Cc1nc2ccc(NC(=S)NC(C)C)cc2nc1C,-1.5,u,10.9%,9.6%,4.2%,6.9,1.2
CCOC(=O)c1cnn(-c2ccc(C(C)C)cc2)c1NC(=O)C1CCC1,7.4,-14.4%,-7.7%,24.7%,0.5%,-10.6,-0.3
CN(CC(=O)Nc1ccc(F)cc1)C(=O)CNC(=O)C1CCCCC1,x,-5.9%,11.0%,x,-1.6%,-12.8,16.5
CCOC(=O)c1c(NC(=O)COC(=O)c2ccccn2)sc(C(=O)N(C)C)c1C,x,-6.9%,-17.7%,x,4.7%,-1.9,102.8*
Cc1nc(-c2ccc(F)cc2)c(CC(=O)N(C)CC(=O)Nc2ccccc2C(F)(F)F)s1,x,13.5%,-27.5%,x,0.5%,1.7,7.0
CC(=O)NCCCc1nc2ccccc2n1Cc1ccccc1F,0.6,0.4%,7.3%,3.7%,x,10.0,1.0
COc1ccc(NC(=O)c2ccc(-n3cccn3)c([N+](=O)[O-])c2)cc1,5.7,-3.9%[15.4 µM],-24.7%,12.2%,x,-3.9,12.2
CC(C)(C)OC(=O)N1CCCC1C(=O)O (configuration not stated),1.6,4.9%,7.4%,9.7%,0.9%,7.0,9.5
COc1ccc2c([N+](=O)[O-])c(N3CCOCC3)[nH]c2c1,x,u,x,x,u,10.8,x
CCOc1ccc(S(=O)(=O)NCc2cccnc2)cc1NC(=O)c1ccccc1,x,-2.3%[15.4 µM],-9.1%,x,x,-2.2,x
COc1ccccc1-n1cnc(N)c1C(C)=O,1.2,-33.1%[inhibitor],13.9%,22.0%,-0.3%,5.5,-29.2
CCCc1cc(CNC(=O)C2CCC(=O)N(CCc3cccc(F)c3)C2)on1 (configuration not stated),x,u,-8.4%,13.9%,0.3%,-21.8,0.7
O=C(NC12CC3CC(CC(C3)C1)C2)c1cccc(OC(F)F)c1,1.8,15.2%[15.4 µM],-2.1%,-2.7%,-1.3%,35.0,4.8
CCCOC(=O)c1ccc(NC(=O)c2ccccc2[N+](=O)[O-])cc1,4.0,8.3%,-16.3%,2.2%,-3.7%,-1.5,9.5
O=C(Cc1ccccc1)NN1C(=O)C2C3C=CC(C4CC34)C2C1=O (configuration not stated),6.7,u,14.1%,26.8%,-0.6%,10.7,-9.0
CCn1c(=O)c(C(C)=O)nc2ccccc21,-0.2,-9.9%,17.4%,-4.0%,-5.9%,-11.1,7.3
O=C(O)c1ccc(/C=N/NC(=O)c2ccc(CN3c4cccc5cccc(c45)S3(=O)=O)cc2)cc1,3.7,-12.2%,4.5%,-15.0%,3.3%,0.1,-2.9
COc1cc(/C=N/NC(N)=S)ccc1OCC(=O)Nc1ccc(C)cc1,-1.4,0.0%,2.0%,-14.0%,-4.7%,-17.7,-38.4
COc1ccc(OC)c(S(=O)(=O)Nc2cccc3c(O)cccc23)c1,x,-14.5%,-14.6%,x,0.2%,20.6,x
CN(Cc1cccs1)c1nc(-c2cccnc2)nc2ccccc12,-0.4,-11.4%[15.4 µM],u,-0.7%,-16.7%,-4.6,-17.4
CC(=O)c1ccc(OCC(=O)Nc2nnc(C3CC3)s2)cc1,x,-13.2%,x,x,-0.7%,1.8,x
O=c1c2ccccc2nc(/C=C/c2cccnc2)n1CCc1ccccc1,-3.1,-4.7%[15.4 µM],-23.9%,-9.8%,x,8.8,-15.4
O=C(O)C1CCN(C(=O)CSc2nc3ccccc3c(=O)n2Cc2ccccc2)CC1,x,-7.3%,-6.0%,16.1%,x,-25.4,11.6
COc1ccc(CC(=O)OCC(=O)NCCc2ccccc2)cc1OC,3.8,-5.0%[15.4 µM],8.0%,2.6%,-0.7%,-8.4,-5.4
O=C1C(=O)N(CCN2CCOCC2)C(c2cccnc2)/C1=C(/O)c1ccccc1 (configuration not stated),-2.7,x,x,6.5%,x,x,-11.8
O=C(C1CCN(C2CCN(Cc3ccc4c(c3)CCO4)CC2)CC1)N1CCCC1,-0.2,u,18.1%,17.9%,x,-1.9,0.8
CCN(c1ccccc1)S(=O)(=O)c1ccc(Cl)c(C(=O)NCCc2ccc(OC)cc2)c1,6.3,-15.1%[15.4 µM],-3.8%,10.6%,-1.4%,6.1,11.2
COc1ccc(C(C)(C)C)cc1NS(=O)(=O)c1cccc2cccnc12,2.0,-24.7%[15.4 µM],-26.3%,8.3%,-2.0%,-28.1,8.8
COc1cc(C(=O)Nc2ccc(S(=O)(=O)Nc3nccc(C)n3)cc2)cc(OC)c1OC,-1.7,-10.2%,10.8%,13.3%,2.1%,10.5,-2.5
O=C(c1ccc(CS(=O)c2ccc(F)cc2)o1)N1CCN(C2CCCCC2)CC1 (configuration not stated),-4.9,21.0%,5.4%,6.5%,0.6%,3.5,8.8
O=C1CN(C(=O)c2ccc3nc(Cc4cccc(Cl)c4)oc3c2)CCN1,x,-20.3%,6.6%,8.7%,2.3%,-8.2,-3.3
COc1ccccc1CNC(=O)CSCc1cnn(-c2ccccc2)c1-n1cccc1,2.7,22.8%,-20.9%,8.1%,-0.2%,-6.1,-18.9
CCCC(=O)NC(c1ccco1)c1c(O)ccc2ccccc12 (configuration not stated),-1.0,-18.1%,-18.8%,-6.3%,u,6.6,9.0
COc1ccc(-n2cc(-c3ccc(Br)cc3)[nH]c2=S)cc1,-0.4,-0.6%[15.4 µM],-3.9%,-1.4%,x,-7.3,-3.4
COCCNC(=O)c1ccc2c(c1)CCN2S(C)(=O)=O,1.1,14.1%,2.9%,7.1%,x,-6.9,1.6
C#CCN(Cc1ccco1)C(=O)c1ccc(OC2CCN(Cc3ccccn3)CC2)cc1,x,-2.2%[15.4 µM],8.1%,x,1.1%,1.0,x
O=S(=O)(c1cccs1)N1CCCc2ccccc21,-0.6,8.9%,5.9%,14.6%,-0.7%,51.3,-6.9
COc1ccc(NC(=O)C(=O)N2N=C(C(C)C)CC2(O)C(F)(F)F)cc1 (configuration not stated),2.8,4.3%,0.9%,8.7%,-0.4%,0.7,x
CCOc1ccc(C(=O)NCC(=O)NCC(c2ccco2)N2CCCCC2)cc1OCC (configuration not stated),x,2.6%[15.4 µM],11.4%,x,-5.9%,3.5,-10.5
COc1cc(C)ccc1OCCOCCOc1cccc2ccc(C)nc12,-0.9,3.6%,-14.4%,50.1µM*,x,2.8,9.5
# Further compounds:
SMILES,Menin-MLL FL inh,gsp ag,gsp antagonist,Sfp PPTase inh,ClpP mod,TRPML1 blocker,TRPV1 potentiator
COC(=O)Nc1snnc1C,-2.1,1.2%,-2.8%[15.4 µM],3.8%,-3.2%,44.3,10.4
Cc1ccc(N(C)C(=O)CCS(=O)(=O)c2ccc3c(c2)oc(=O)n3C)cc1,-2.5,8.3%,-0.1%,8.8%,x,2.1,2.2
CCC(=O)c1cc2c(cc1NC(=O)c1cccs1)OCCO2,-0.2,1.2%,10.7%,6.4%,200.9%,5.3,-16.4
CC(=O)Nc1scc(C)c1-c1nc2ccccc2s1,1.3,9.8%[15.4 µM],-24.2%,-17.7%,x,32.6,1.3
COc1ccc(-n2c(CN3CCC(C(N)=O)CC3)nc3ccc([N+](=O)[O-])cc3c2=O)c(OC)c1,-0.7,u,-4.7%,3.8%,-1.3%,9.6,15.0
CC(C)(C)c1cc[n+](/C(C(=S)Nc2ccccc2F)=C(/[O-])c2ccc3c(c2)OCCO3)cc1,6.1,-18.5%[15.4 µM],-20.1%,20µM*,x,-19.2,0.8
COc1ccc(C2=Nn3c(C)nnc3SC2)cc1,x,-25.0%,-11.4%,14.6%,3.0%,8.5,-19.2
COC(=O)c1ccc(CSc2nc3c(c(=O)n2-c2ccc(Br)cc2)SCC3)o1,0.1,5.5%,-6.0%,4.4%,-6.1%,16.6,-23.9
Cc1cc(Cl)ccc1Nc1ncccc1C(N)=O,-1.0,4.1%[15.4 µM],-8.7%,2.1%,x,-11.8,0.0
COc1ccccc1Cc1noc(COc2cccc(C)c2C)n1,7.2,2.6%,-15.2%,5.0%,-0.7%,16.4,10.0

# High-throughput results as filed in PubChem.
